Biofilm kill mix = clotrimazole potentiators killing C. albicans biofilm, primary screen, 4-compound mixtures. hit rate 0.02% among 120,000. C. albicans biofilm persisters + clotrimazole, fluorescence viability; primary screen in compound mixtures of four per well. inhibition, % at 7.6 µM;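 active = inhibition above 30.3% in the primary screen of four-compound pools, then above 30% when the compound was retested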;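 note: compounds exposed to preformed 24 h biofilms for 48 h; the number belongs to the whole pool; some results filed as inactive read as strong as hits; inactives centre near 12; 0% = biofilm with clotrimazole alone and 100% = kill control; retested singly at about 60 µM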
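System: C. albicans CAF4-2 wild-type biofilms; Medium: RPMI/MOPS medium, pH 7.0; Reagent: Clotrimazole, 50 µg/mL; Times: biofilm formation 24 h, compound exposure 48 h, 37 °C; Detection: 2-h Alamar Blue fluorescence, 535/590 nm excitation/emission; Evaluation: percent inhibition of biofilm viability.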
* hit, by the source's call; & = joins results of further samples.

molecule	Biofilm kill mix
Cn1ccc(NC(=O)Nc2ccc(Cl)cc2Cl)n1	4
Cc1onc(-c2ccccc2)c1C(=O)Nc1ccc(S(=O)(=O)NC(C)(C)C)cc1	-2
COc1ccc(OC)c(NC(=O)c2ccc(OC3CSC3)cc2)c1	18
O=C(/C=C/c1ccc(Br)cc1)N1CCN(c2cccc(C(F)(F)F)c2)CC1	19
Cc1ccc(Oc2ccc(NC(=O)CSc3n[nH]c(N)n3)cc2)cc1	10
C=CCOc1ccc(Br)cc1CNC(C)(C)CO	10
CN1CCN(C2=Cc3ccc(Cl)cc3Sc3ccc(F)cc32)CC1	14
CCSc1nnc(NC(=O)[C@@H](NC(=O)c2cccc(C)c2)C(C)C)s1	9
CN(C)c1ccc(C(=S)N2CCCCC2)cc1	20
Cc1ccc(C2(c3noc(CN4C[C@@H](C)O[C@@H](C)C4)n3)CCCC2)cc1	8
CC(=O)C1=C(C)NC2=C(C(=O)c3ccccc32)C1c1ccccc1 (stereo not drawn)	13
N#C/C(=N\O)c1nc2ccccc2[nH]1	8
CCc1c(C)c(C#N)c2nc3ccccc3n2c1NCc1ccccn1	-28
N/C(=C\C(=O)c1cc(Cl)ccc1O)C(Cl)(Cl)Cl	15
CC1CN(CCCCOc2ccc3ccccc3c2)CC(C)O1 (stereo not drawn)	10
S=c1[nH]nc(-c2cc3ccccc3o2)n1Cc1ccccc1	7
O=C(O)c1ccc(N=NN2CCOCC2)cc1	22
O=C(c1ccc(CSc2ccccc2)cc1)N1CCCCCC1	10
CCCC(=O)N1CCN(C2=NS(=O)(=O)c3ccccc32)CC1	8
O=C(N/N=C/c1cc2c(cc1Br)OCO2)c1ccccn1	25
COCCNC(=S)N/N=C(\C)c1ccc(C)c([N+](=O)[O-])c1	10
COc1ccc(NS(=O)(=O)c2cccc(N/C(=N\S(=O)(=O)c3ccccc3)c3ccc(F)cc3)c2)cc1	9
COc1ccc(N(CC(=O)Nc2ccccc2C)S(=O)(=O)c2c(C)[nH]c(=O)[nH]c2=O)cc1	1
COc1ccc(-n2cc(-c3ccccc3)nc2SC)cc1	12
Cc1cc(C)cc(Oc2coc3cc(OC(=O)c4cccnc4)ccc3c2=O)c1	-16
C/C(Cn1nnc2ccccc21)=N\OC(=O)c1ccccc1C	15
O=C(NC(=S)Nc1ccc(S(=O)(=O)NC2CCCCC2)cc1)c1cccs1	15
N#Cc1cc2c(nc1Cl)CCCC2	2
Clc1ccc2oc(-c3ccccc3)cc(=NCCCN3CCOCC3)c2c1	17
CC(C)=CC(=O)OCC(=O)NC1CCCc2ccccc21 (stereo not drawn)	15
O=C(CS(=O)(=O)c1ccc(Cl)cc1)NCCS(=O)(=O)c1ccc(Cl)cc1	17
O=C(Nc1cccc([N+](=O)[O-])c1)c1ccc2c(c1)OCO2	16
Clc1ccc(-c2csc(N/N=C\c3cccnc3)n2)cc1	9
C/C(=N/NS(=O)(=O)c1ccccc1)c1ccc(Cl)cc1	29
COc1ccc(C)cc1NC(=O)Nc1cccc(C)c1	3
COc1ccccc1-c1ccc(SCc2ccc([N+](=O)[O-])cc2)nn1	10
CCC1CCCCN1C(=O)c1ccc(OC2CCN(C(=O)C3CC3)CC2)cc1 (stereo not drawn)	8
CN1C(=O)NC(c2ccc(O)cc2)C2=C1CN(c1cccc3ccccc13)C2=O (stereo not drawn)	-8
O=c1cc(CSc2ccc(Cl)cc2)[nH]c2[nH]n(-c3ccccc3)c(=O)c12	21
CCn1c(SCc2nc3ccccc3c(=O)[nH]2)nc2ccccc2c1=O	8
Cc1cccc(NC(=O)Cn2nnc3ccccc32)c1	0
COCCNC(=O)c1ccccc1NC(=O)Nc1ccccc1	15
O=C(c1ccc(CSc2nc3ccncc3[nH]2)cc1)N1CCCCC1	7
CC(C)CCNC(=S)Nc1ccc2nc3n(c(=O)c2c1)CCCCC3	17
Cc1ccc(OCc2ccc(C(=O)NN)o2)c([N+](=O)[O-])c1	16
O=C(NCCCn1ccnc1)c1cc(-c2cccnc2)nc2ccc(Br)cc12	10
COc1ccc(N2C(=O)CC(NNC(=O)c3cc(C)oc3C)C2=O)cc1 (stereo not drawn)	12
Cc1ccc(/C=C(/C#N)C(=O)NC(C)c2ccccc2)o1 (stereo not drawn)	-5
O=S1(=O)CCC(=Nc2ccc(Cl)cc2)c2ccsc21	10
COc1ccc2nc(SCC(=O)Nc3ccccc3OC)[nH]c2c1	-1
COc1ccc(C2=Nc3nc(-c4ccccc4)cn3C(c3ccc(OC)cc3)C2)cc1 (stereo not drawn)	13
CCC(C)(C)c1ccc(OCCCC[n+]2ccccc2)c(C(C)(C)CC)c1	17
CCc1nnc(NC(=O)CSc2nc3cc(OC)c(OC)cc3cc2C)s1	0
Cc1ccccc1/[N+]([O-])=C/c1cccs1	10
COc1ccccc1NC1=NC(CO)(CO)CS1	16
c1ccc(CSc2ccc(-c3ccco3)nn2)cc1	9

More entries follow:
molecule	Biofilm kill mix
COc1cc(/C=C2/C(=O)ON=C2C)ccc1OCc1cccc(F)c1	14
CC(=O)Oc1ccc(N2C(=O)C3C4C=CC(CC4)C3C2=O)cc1[N+](=O)[O-] (stereo not drawn)	-4
COc1ccc(OCC(=O)Nc2nonc2NC(=O)COc2ccc(OC)cc2)cc1	16
NC(=O)NC(=O)CSc1nc2sc(-c3ccccc3)cc2c(=O)n1-c1ccccc1	13
C=CCN(CC=C)C(=O)c1cc2ccccc2c(=O)o1	6
CSc1ncc(Cl)c(C(=O)Nc2ccc(NC(C)=O)cc2)n1	11
CCc1cccc(CC)c1NC(=O)CO/N=C(\N)CC(=O)NC1CCCCC1	11
COC(=O)C(=N/Nc1ccccc1C(=O)OC)/C(C)=N/O	12
CC(C)CNC(=O)/C=C/C(=O)O	25&2
O=Cc1c(NCc2ccco2)nc2ccccn2c1=O	19
Cc1cc(C(N)=O)nn1-c1c(Cl)cc(Cl)cc1Cl	6
COc1ccc(C2CC(c3c(-c4ccccc4)c4cc(Cl)ccc4[nH]c3=O)=NN2C(=O)CCC(=O)O)cc1 (stereo not drawn)	21
O=C(CCN1CCN(S(=O)(=O)c2ccc(Cl)cc2)CC1)Nc1ccccc1F	5
O=C(Nc1ccc(O)cc1C(=O)O)c1cccs1	-7
COc1ccc(Cc2noc(CN3CCC(c4ccncc4)CC3)n2)cc1OC	9
Oc1c(CN2CCOCC2)ccc2ccccc12	21
O=C(O)/C=C/C(=O)Nc1ccc(C(=O)c2ccccc2)cc1	11
O=C(Nc1ccccc1)N1CCSc2ccccc21	-2
COCCN(C(=S)Nc1cccc(OC)c1)C1CCN(C(C)C)CC1	11
O=C(Cn1nc(-c2ccccc2)ccc1=O)NCCCN1CCOCC1	19
CCOC(=O)C(=O)N1CCC(Cc2ccccc2)CC1	9
COC(=O)C1=C(C)NC(=O)NC1c1ccc(OC(=O)c2ccco2)cc1 (stereo not drawn)	12
Cc1ccc(NS(=O)(=O)c2ccc(C(=O)OCC(=O)Nc3cc(C)on3)cc2)cc1	13
Cc1ccc(NC(=O)NCc2ccncc2)cc1Cl	12
COc1ccc(CCN2CCC(Nc3nc4ccccc4n3Cc3ccc(F)cc3)CC2)cc1	21
O=S(=O)(Cc1cc(N2CCOCC2)nc(-c2ccccn2)n1)c1ccccc1	-10
Cn1c2ccccc2c2cc(C(=O)NNC(=O)CCl)sc21	19
CCCc1nc(SCC(=O)c2ccc(F)cc2)c2ccccc2n1	14
CC(=O)N1CCN(c2ccc(NC(=S)NC(=O)c3ccc(C)c([N+](=O)[O-])c3)cc2)CC1	21
CN(C)c1ccnc(Nc2ccc(F)cc2)c1C#N	11
CC(=O)N(CN1C(=O)c2ccc([N+](=O)[O-])cc2C1=O)c1cccc(C(=O)O)c1	11
Clc1ccc(Oc2nc3c(Cl)cccc3s2)cc1Cl	17
CC(CCc1ccccc1)NC(=O)N1CCOCC1 (stereo not drawn)	10
OCCNCCCCOc1ccc(OCc2ccccc2)cc1	9
CCc1ccc(C(C(=O)NC2CCCCC2)N(C(=O)c2ccccn2)c2cccnc2)cc1 (stereo not drawn)	-9
NC(=O)NC(=O)COC(=O)CCCCCNS(=O)(=O)c1ccc2c(c1)OCCO2	19
O=C(Nc1ccc(O)c2c(=O)cc(-c3cccc(Cl)c3)oc12)c1cccc(Cl)c1	11
O=C(CN(c1cccc(Cl)c1)S(=O)(=O)c1ccccc1)NN=C1CCCC1	9
Cc1ccc(C(=O)NNC(=O)c2ccc3ncccc3c2)cc1	11
O=C(CSc1nc2[nH]ncc2c(=O)[nH]1)NCc1ccc(F)cc1	12

4 of the compounds above, as labelled records:
> OCCNCCCCOc1ccc(OCc2ccccc2)cc1
- Biofilm kill mix: 9
> CCc1ccc(C(C(=O)NC2CCCCC2)N(C(=O)c2ccccn2)c2cccnc2)cc1 (stereo not drawn)
- Biofilm kill mix: -9
> NC(=O)NC(=O)COC(=O)CCCCCNS(=O)(=O)c1ccc2c(c1)OCCO2
- Biofilm kill mix: 19
> O=C(Nc1ccc(O)c2c(=O)cc(-c3cccc(Cl)c3)oc12)c1cccc(Cl)c1
- Biofilm kill mix: 11

Later entries.
molecule	Biofilm kill mix
CCN(C(=O)CSc1nc2ccccc2c(=O)n1CCOC)C1CCS(=O)(=O)C1 (stereo not drawn)	2
C/C(=N\NS(=O)(=O)c1ccc(C)c([N+](=O)[O-])c1)c1cccs1	10
COC(=O)c1cc(=O)n(Cc2ccc(F)cc2)c(=NCc2ccc(F)cc2)s1	13
CC(C)CCN1CCN(Cc2cc(F)ccc2-n2cccn2)CC1CCO (stereo not drawn)	14
CN(/N=C/c1ccncc1)c1cnc2ccccc2n1	13
CN(C)c1nnc(-c2ccc(Cl)cc2)o1	3
O=C(COC(=O)COc1ccc(Cl)cc1Cl)Nc1cccnc1Cl	22
COc1ccc(-c2[nH]ncc2CN(Cc2nccn2C)C(C)C)cc1F	7
CCCSc1cc(=O)n(-c2ccccc2)nc1C(=O)O	2
Cc1ccc(Nc2c(-c3ccc(N4CCOCC4)cc3)nc3ncccn23)cc1	7
COc1cc(NC(=O)c2n[nH]c(=O)c3ccccc23)cc(OC)c1	16
C/C(=N\NC(=O)c1ccccc1)c1ccc(N2CCCCC2)cc1	13
O=C(c1ccccc1)N1CCN(S(=O)(=O)N2CCOCC2)CC1	12
O=C(NC(=S)NCc1ccco1)c1ccccc1	9
CC(C)OP(=O)(OC(C)C)C(Nc1cccc(C(=O)O)c1)c1ccccc1 (stereo not drawn)	16
COc1ccc(Cn2cnc3c4cc(F)ccc4n(C)c3c2=O)cc1	17
Cc1cccc(C)c1NC(=O)CCCSc1nnc(N)s1	16
O=C(NNC(=O)c1cnccc1C(F)(F)F)c1ccccc1	11
C/C(=N\Nc1ccc(S(N)(=O)=O)cc1[N+](=O)[O-])c1ccco1	9
CCOc1ncccc1C(=O)OCC(=O)NC(=O)NC(C)C	16
COCCNC(=O)c1cc2sccc2n1C	3
O=C(N/N=C/c1ccccc1)c1ccc(N2CCOCC2)c([N+](=O)[O-])c1	15
CC1CC(C)CN(C(=O)COC(=O)c2cccc([N+](=O)[O-])c2)C1 (stereo not drawn)	4
Cc1cccc(C(=O)NCC(c2ccco2)N(C)C)c1 (stereo not drawn)	-1
COc1ccc(N=C2NC(=O)/C(=C\C=C\c3ccccc3)S2)cc1	41
COc1ccc(N2CCN(Cc3nc(-c4ccccc4)no3)CC2)cc1	14
CCOC(=S)SCc1cn2cccc(C)c2n1	25
Cn1nnc(NC(=S)NC(=O)c2cccs2)n1	13
Cc1cc(C(=O)NP(=O)(N2CCOCC2)N2CCOCC2)c(C)n1-c1ccc(N(C)C)cc1	15
COC(=O)c1sc(NC(=S)NC(=O)c2ccccc2Cl)nc1C	14
CCN1CCN(CC(=O)c2cc(Cl)ccc2Cl)CC1	13
CC1=NNC(=O)C1CCC(=O)N/N=C/c1ccco1 (stereo not drawn)	16

Rewritten as labelled records: four of the compounds above.
Cn1nnc(NC(=S)NC(=O)c2cccs2)n1
  Biofilm kill mix: 13

Cc1cc(C(=O)NP(=O)(N2CCOCC2)N2CCOCC2)c(C)n1-c1ccc(N(C)C)cc1
  Biofilm kill mix: 15

COC(=O)c1sc(NC(=S)NC(=O)c2ccccc2Cl)nc1C
  Biofilm kill mix: 14

CCN1CCN(CC(=O)c2cc(Cl)ccc2Cl)CC1
  Biofilm kill mix: 13

(next part)
molecule	Biofilm kill mix
CN1CCN(c2nc3ccccn3c(=O)c2/C=C(\C#N)S(=O)(=O)c2ccccc2)CC1	12
N#Cc1ccc(CSc2nnc(NC(=O)c3ccc(=O)[nH]c3)s2)cc1	21
Cc1ccc(N=C2CSC(=O)N2)cc1	14
CCOc1ccc(NS(=O)(=O)c2ccc3ncsc3c2)cc1	-14
CCn1c(SCC(=O)OC)nnc1-c1c[nH]c2ccccc12	16

Screening results deposited in PubChem by PCMD.

These rows are one share of the data; rates above refer to the full screens.
